Six1-Eya2 blk: inhibitors of human Six1/Eya2 interaction. activity change, % (concentration not given with the values). AID 651725. AlphaScreen GST-Six1/His-Eya2 binding, biochemical; stronger effect = lower value; control for the full effect not named in the record. 360,000 compounds, 0.56% hits; in the data active = activity change below about -65%; inconclusive = about -30% to -65%; inactive = above about -30%; further: on the % scale 0 is the no-effect control and ±100 the full control effect
Target sequence (O00167 whole entry, looked up): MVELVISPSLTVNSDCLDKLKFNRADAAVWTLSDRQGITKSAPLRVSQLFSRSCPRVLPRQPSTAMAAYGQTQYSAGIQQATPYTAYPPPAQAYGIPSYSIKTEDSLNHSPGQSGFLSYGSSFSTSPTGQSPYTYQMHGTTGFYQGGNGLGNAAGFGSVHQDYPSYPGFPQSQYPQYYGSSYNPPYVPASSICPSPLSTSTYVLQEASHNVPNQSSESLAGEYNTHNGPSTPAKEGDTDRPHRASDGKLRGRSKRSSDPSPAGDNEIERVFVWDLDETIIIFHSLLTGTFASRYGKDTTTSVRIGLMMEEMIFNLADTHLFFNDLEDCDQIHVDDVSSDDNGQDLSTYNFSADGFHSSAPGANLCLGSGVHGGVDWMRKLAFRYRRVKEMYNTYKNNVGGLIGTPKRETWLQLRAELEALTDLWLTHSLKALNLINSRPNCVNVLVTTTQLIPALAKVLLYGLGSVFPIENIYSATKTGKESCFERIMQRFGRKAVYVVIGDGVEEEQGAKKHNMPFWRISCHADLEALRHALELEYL
Target sequence (Q15475 whole entry, looked up): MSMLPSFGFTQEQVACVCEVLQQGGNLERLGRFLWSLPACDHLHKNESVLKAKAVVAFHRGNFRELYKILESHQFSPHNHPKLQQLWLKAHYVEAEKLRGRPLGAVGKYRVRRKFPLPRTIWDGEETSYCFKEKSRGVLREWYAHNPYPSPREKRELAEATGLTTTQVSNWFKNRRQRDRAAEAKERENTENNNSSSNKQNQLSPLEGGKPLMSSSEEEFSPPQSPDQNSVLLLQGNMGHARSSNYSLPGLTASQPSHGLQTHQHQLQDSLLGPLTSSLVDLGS
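AlphaScreen luminescence read after one hour at 37 °C in darkness. Pin-transferred compounds met GST-Six1 and His-Eya2 protein (5X stock 250 nM/500 nM) plus glutathione donor and Ni-chelate acceptor beads (5X, 50 ug/mL).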
CtBP-E1A blk: CtBP/E1A binding inhibition | AlphaScreen GST-E1A/His-CtBP binding, 1536-well; stronger effect = lower value; control for the full effect not named in the record | activity change, % (test concentration not listed) | 340,000 compounds, 0.49% hits | AID 651724; in the data active means activity change below about -65%; inconclusive means about -30% to -65%; inactive means above about -30%; further: on the % scale 0 is the no-effect control and ±100 the full control effect
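Homogeneous bead-based format: GST-tagged E1A captured on glutathione donor beads, His-tagged CtBP on nickel acceptor beads; compounds precede bead addition by 2 h at 37 °C.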
D2 PAM: potentiates the human D2 dopamine receptor allosterically | P14416 | DiscoveRx D2 beta-arrestin cells, luminescence, 90 min; 100% = 57 uM dopamine signal | potentiation, % (concentration not given with the values) | 360,000 compounds, 0.23% hits | AID 624464; active = potentiation of 50% or more; inconclusive = 30% to 50%; inactive = 30% or less;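 further: tested on top of an EC20 dose of dopamine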
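PathHunter beta-arrestin assay in DiscoveRx D2 cells. Compounds were added with an EC20 of dopamine (50 nM final) for 90 min at 37 deg C. Luminescence was read 1 h after detection reagent, with 57 uM dopamine as the EC100 control.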
gsp agonist: activates gsp, the McCune-Albright syndrome mutation. 340,000 compounds, 0.13% hits. gsp mutant cells, cAMP HTRF, 30 min; control for the full effect not named in the record. Potency, µM (highest dose often 76.9 µM), without a hit: top-dose activation (cAMP increase), most hits filed as activators. AID 624287; active = well fitted activation curve with a large enough effect; inconclusive = small, poorly fitted or top-dose-only effect, or another doubt; inactive = no such curve, though single readings can be large or run the other way; cell line not stated here;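 further: phosphodiesterase inhibitor Ro 20-1724 added with compounds to block cAMP breakdown; potency means the concentration at half of the fitted maximal effect; nearly all actives have a fitted effect of over 60% in size; about a fifth of the inactives were tested at one dose only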
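Cells in DMEM/10% FBS with G418 were pretreated with compounds in DMSO plus […] (300 uM stock) for 30 min at 37C. cAMP was measured by HTRF (cAMP-d2 plus anti-cAMP antibody-K) after 30 min at room temperature.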
gsp antag: antagonists of gsp mutant (McCune-Albright syndrome). gsp-mutant cells, cAMP HTRF, 30 min; control for the full effect not named in the record. Potency, µM (highest dose often 76.9 µM), without a hit: at the highest dose activity change, negative = inhibition, hits mostly inhibitors. AID 624288. 340,000 compounds, 0.4% hits; active = falling curve of any shape with a large fitted effect; inconclusive = falling curve, mostly with a smaller effect; inactive = flat or rising curve; cell line not stated here;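 further: intracellular cAMP measured with PDE inhibitor Ro 20-1724 present during compound exposure; potency means the concentration at half of the fitted maximal effect; on the % scale 0 is the no-effect control and ±100 the full control effect; nearly all actives have a fitted effect of over 65% in size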
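G418-selected cells were plated in DMEM/10% FBS for 16-24 h at 37C, then treated with compounds plus the PDE inhibitor […] (300 uM solution added) for 30 min at 37C. Intracellular cAMP was measured by HTRF after 30 min lysis at room temperature.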
D2 ag: activates the human D2 dopamine receptor; P14416; DiscoveRx PathHunter D2 beta-arrestin, luminescence, 90 min; 100% = 57 uM dopamine signal; activation, % (test concentration not listed); 360,000 compounds, 0.084% hits; in the data active = activation above about 40%; inconclusive = about 15% to 40%; inactive = below about 15%; further: compound concentration not given in the record; the text of the record calls up to 30% inactive
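Agonist mode: compounds alone added to overnight-plated D2 PathHunter cells for 90 min at 37 C, with 57 uM final dopamine (EC100) defining full response. Beta-arrestin recruitment detected by chemiluminescent reagent, read after 1 h at ambient temperature.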
* hit, by the source's call; [ ] = remark or other dose.

For COc1cc(NC(=O)COc2ccc(C)c(C)c2)ccc1NC(=O)c1ccco1 the results were Six1-Eya2 blk -4, CtBP-E1A blk -1, D2 PAM -4, gsp agonist 16%, gsp antag -18% and D2 ag -1.8.
`C=C(C)CN(Cc1ccccc1)C(=S)Nc1ccccc1` gave Six1-Eya2 blk -7, CtBP-E1A blk 4, D2 PAM -3, gsp agonist -21%, gsp antag 7% and D2 ag 3.0.
COc1ccccc1NS(=O)(=O)c1cc(NC(=O)CCC2CCCC2)ccc1N1CCOCC1 was read as Six1-Eya2 blk 5, CtBP-E1A blk 7, D2 PAM -7, gsp agonist 7%, gsp antag 14% and D2 ag -4.5.
For O=c1nc(-c2ccccc2)n(-c2ccccc2)[nH]1 the results were Six1-Eya2 blk 1, CtBP-E1A blk 3, D2 PAM -25, gsp agonist 5%, gsp antag 2% and D2 ag -2.2.
Screening COc1ccc2nc3cc(Cl)ccc3c(C#N)c2c1 returned Six1-Eya2 blk 6, CtBP-E1A blk 0, D2 PAM 0, gsp agonist 10%[15.4 µM], gsp antag 0% and D2 ag -3.1.
CNC(=O)c1c(NC(=O)c2ccc(S(=O)(=O)N3CCCCC3)cc2)sc2c1CCN(C(C)C)C2 was read as Six1-Eya2 blk 0, CtBP-E1A blk -3, D2 PAM -17, gsp agonist -14%, gsp antag 0% and D2 ag -2.1.
C=CCn1c(SCC(=O)NC2CCS(=O)(=O)C2)nc2scc(C3CC3)c2c1=O (stereo not drawn) was read as Six1-Eya2 blk -1, CtBP-E1A blk 0, D2 PAM -4, gsp agonist -17%, gsp antag 8% and D2 ag -0.6.
CCCCNCCOCCOc1ccc(F)cc1 was read as Six1-Eya2 blk -12, CtBP-E1A blk 2, D2 PAM -47, gsp agonist -5%, gsp antag 8% and D2 ag -5.5.
`CC(=O)c1cccc(CN2CCC(C(=O)Nc3ccc(Oc4cccnc4)cc3)CC2)c1` gave Six1-Eya2 blk -23, CtBP-E1A blk -8, D2 PAM -20, gsp agonist -7%[15.4 µM], gsp antag -9% and D2 ag -6.6.
For CNCCCCOc1ccc(C(C)(C)C)cc1Cl the results were Six1-Eya2 blk 9, CtBP-E1A blk -14, D2 PAM -7, gsp agonist 9%[15.4 µM], gsp antag 14% and D2 ag -4.9.
`O=C(O)c1ccc(/C=N/Nc2ncc(C(F)(F)F)cc2Cl)cc1` gave Six1-Eya2 blk 16, CtBP-E1A blk 5, D2 PAM -2, gsp agonist 5%[15.4 µM], gsp antag -6% and D2 ag -1.1.
`CCN(CC)C(=O)c1cccc(-c2csc(C(C)(O)c3ccc(OC)cc3)n2)c1` (stereo not drawn) gave Six1-Eya2 blk -6, CtBP-E1A blk 5, D2 PAM 1 and D2 ag 2.5.
`O=C(CCN1CCCO1)NC1CCCc2c1cnn2-c1ccccc1F` (stereo not drawn) gave Six1-Eya2 blk -7, CtBP-E1A blk 0, D2 PAM 14, gsp agonist -4%, gsp antag 8% and D2 ag 1.3.
For CC(C)N1CCC(N2CCN(Cc3ccc(-c4ccc(Cl)cc4)o3)CC2CCO)CC1 (stereo not drawn) the results were Six1-Eya2 blk -5, CtBP-E1A blk -13, D2 PAM -11, gsp agonist 31%, gsp antag 1% and D2 ag 3.1.
For CC1=C(C(=O)OCc2ccccc2)C(c2ccc(Cl)cc2Cl)NC(=O)N1CCCCCC(=O)O (stereo not drawn) the results were Six1-Eya2 blk 2, CtBP-E1A blk 5, D2 PAM -3, gsp agonist -5%, gsp antag -23% and D2 ag 0.9.
`CCn1c(CS(=O)Cc2ccc(Cl)cc2Cl)nnc1SCc1c(Cl)cccc1Cl` (stereo not drawn) gave Six1-Eya2 blk 1, CtBP-E1A blk 4, D2 PAM -16, gsp agonist -14%, gsp antag 8% and D2 ag -3.1.
Screening CCc1nnc(N/N=C/c2cc(C)c(C)cc2C)n1N returned Six1-Eya2 blk 3, CtBP-E1A blk -13, D2 PAM -20, gsp agonist -50%[inhibitor], gsp antag 3% and D2 ag inconclusive.
Screening COc1ccnc(Nc2cccc(C)c2)c1C#N returned Six1-Eya2 blk 0, CtBP-E1A blk 6, D2 PAM -2, gsp agonist -25%, gsp antag 7% and D2 ag -4.0.
Screening COc1ccccc1N(CC(=O)Nc1cc(S(=O)(=O)N(C)C)ccc1C)S(=O)(=O)c1cccs1 returned Six1-Eya2 blk -3, CtBP-E1A blk 0, D2 PAM -1, gsp agonist 10%[15.4 µM], gsp antag 1% and D2 ag 1.0.
Screening O=C(c1ccco1)n1nc(-c2ccccc2)nc1SCc1ccccc1 returned Six1-Eya2 blk 6, CtBP-E1A blk 14, D2 PAM -11, gsp agonist 18%, gsp antag 21% and D2 ag -4.2.
For O=C(CCN1C(=O)COc2ccccc21)NCCN1CCOCC1 the results were Six1-Eya2 blk 31, CtBP-E1A blk 8, D2 PAM -3, gsp agonist inconclusive, gsp antag 7% and D2 ag -2.1.
`CCOC(=O)C(NC=O)(NC(C)(C)C)C(=O)OCC` gave Six1-Eya2 blk -8, CtBP-E1A blk 5, D2 PAM -4, gsp agonist inconclusive, gsp antag 12% and D2 ag -5.0.
`Nc1ccc(-c2nc3ccc(-c4nc5ccccc5o4)cc3[nH]2)cc1` gave Six1-Eya2 blk 7, CtBP-E1A blk 0, D2 PAM 65*, gsp agonist inconclusive, gsp antag 15% and D2 ag 3.1.
CC(=O)C1=CCC(c2ccc(C(C)C)cc2)N(S(=O)(=O)c2ccc(C)cc2)C1 (stereo not drawn) was read as Six1-Eya2 blk 0, CtBP-E1A blk 6, D2 PAM -2 and D2 ag -2.9.
`COc1ccc(C2NC(=O)NC(C)=C2C(=O)OC2CCCCC2)cc1OC` (stereo not drawn) gave Six1-Eya2 blk 8, CtBP-E1A blk 0, D2 PAM -2, gsp agonist -51%, gsp antag -11% and D2 ag 0.0.
For CN1CC(=O)N(CC(=O)NCc2ccc3c(c2)OCO3)C1=O the results were Six1-Eya2 blk -2, CtBP-E1A blk 2, D2 PAM -12, gsp agonist -40%[inhibitor], gsp antag 17% and D2 ag -2.5.
For Clc1cc2cccnc2c2ccccc12 the results were Six1-Eya2 blk 18, CtBP-E1A blk 18, D2 PAM 1, gsp agonist 26%, gsp antag -11% and D2 ag -7.5.
Screening Cc1ccc2[nH]c(=O)c3cc(C(=O)N(C)c4ccc(C)c(C)c4)sc3c2c1 returned Six1-Eya2 blk 4, CtBP-E1A blk -5, D2 PAM -7, gsp agonist 18%, gsp antag -13% and D2 ag 1.1.
For Cc1ccc(Cn2cc(C(=O)c3ccc(F)cc3)c(=O)c3cc4c(cc32)OCCO4)cc1 the results were Six1-Eya2 blk -1, CtBP-E1A blk 4, D2 PAM -1, gsp agonist 4%, gsp antag -33% and D2 ag -4.0.
Screening CCN1C(=O)C(O)(CC(=O)c2c(C)coc2C)c2ccccc21 (stereo not drawn) returned Six1-Eya2 blk 23, CtBP-E1A blk 11, D2 PAM -2, gsp agonist -15%[15.4 µM], gsp antag 13% and D2 ag -20.
For CCOC(=O)C1=C(CS(=O)(=O)c2ccccc2)NC(=O)NC1c1cccc(OC)c1 (stereo not drawn) the results were Six1-Eya2 blk -9, CtBP-E1A blk -22, D2 PAM -4, gsp agonist 3%, gsp antag 12% and D2 ag -0.2.
`OCCn1c(SC2CCCCC2)nc2ccccc21` gave Six1-Eya2 blk 2, CtBP-E1A blk 15, D2 PAM -4, gsp agonist -31%[inhibitor], gsp antag -3% and D2 ag -1.9.
CCN(CC)c1ccc(NC(=O)c2cc(Cl)ccc2OC)cc1 was read as Six1-Eya2 blk -66*, CtBP-E1A blk inconclusive, D2 PAM -10, gsp agonist 5%, gsp antag -11% and D2 ag -11.
For CC1C(=O)C(C)(C)C(=O)OC1c1ccccc1 (stereo not drawn) the results were Six1-Eya2 blk -1, CtBP-E1A blk 0, D2 PAM -6, gsp agonist -1%, gsp antag -6% and D2 ag -2.7.
For FC(F)(F)c1ccccc1Cc1c(-c2ccco2)nc2ccc(Br)cn12 the results were Six1-Eya2 blk -15, CtBP-E1A blk -4, D2 PAM -10 and D2 ag -9.3.
C[C@@]12CC(=O)NC1N(C(=O)c1ccccc1)C(c1ccccc1OC(=O)c1ccccc1)C2 (stereo partly drawn) was read as Six1-Eya2 blk -1, CtBP-E1A blk -5, D2 PAM 11, gsp agonist 1%, gsp antag -5% and D2 ag 0.3.

2 records picked at random from those above:
For CC1C(=O)C(C)(C)C(=O)OC1c1ccccc1 (stereo not drawn) the results were Six1-Eya2 blk -1, CtBP-E1A blk 0, D2 PAM -6, gsp agonist -1%, gsp antag -6% and D2 ag -2.7.
Screening Cc1ccc2[nH]c(=O)c3cc(C(=O)N(C)c4ccc(C)c(C)c4)sc3c2c1 returned Six1-Eya2 blk 4, CtBP-E1A blk -5, D2 PAM -7, gsp agonist 18%, gsp antag -13% and D2 ag 1.1.

Further records
O=C(c1ccccc1)C1CCc2occc2C1=O (stereo not drawn) was read as Six1-Eya2 blk 9, CtBP-E1A blk 13, D2 PAM -8, gsp agonist 25%, gsp antag 10% and D2 ag -2.4.
`COc1cccc(CN2CC(C(=O)N3CCCO3)CCC2=O)c1` (stereo not drawn) gave Six1-Eya2 blk 2, CtBP-E1A blk 10, D2 PAM -3, gsp agonist -48%[inhibitor], gsp antag 11% and D2 ag -1.7.
Screening CCOC(=O)N1CCN(C(=O)C2CCCN(S(=O)(=O)c3ccc(C)cc3)C2)CC1 (stereo not drawn) returned Six1-Eya2 blk 0, CtBP-E1A blk 1, D2 PAM -4, gsp agonist -14%, gsp antag inconclusive and D2 ag 0.6.
Screening CC(=O)CCc1oc2ccc(NC(C)=O)cc2c1-c1ccc(C)o1 returned Six1-Eya2 blk -10, CtBP-E1A blk -1, D2 PAM 19, gsp agonist 12%, gsp antag -10% and D2 ag -0.1.
For COc1cc([C@@H]2OC[C@@H]3[C@H]2CO[C@@H]3c2ccc3c(c2)OCO3)ccc1O the results were Six1-Eya2 blk 0, CtBP-E1A blk 0, D2 PAM -5, gsp agonist -56%[inhibitor], gsp antag 2% and D2 ag 0.0.
`CCCNC(=O)NC1CCCc2ccccc21` (stereo not drawn) gave Six1-Eya2 blk 1, D2 PAM -9, gsp agonist 5%, gsp antag 31%[activator] and D2 ag 0.0.
`N#Cc1nnn2c1nc(N)c1c(F)cccc12` gave Six1-Eya2 blk 1, CtBP-E1A blk -2, D2 PAM -10, gsp agonist 15%[15.4 µM], gsp antag 19% and D2 ag -3.6.

Sorted by molar mass (smallest number first): some entries from above.
`CCCNC(=O)NC1CCCc2ccccc21` (stereo not drawn) gave Six1-Eya2 blk 1, D2 PAM -9, gsp agonist 5%, gsp antag 31%[activator] and D2 ag 0.0.
Screening CC(=O)CCc1oc2ccc(NC(C)=O)cc2c1-c1ccc(C)o1 returned Six1-Eya2 blk -10, CtBP-E1A blk -1, D2 PAM 19, gsp agonist 12%, gsp antag -10% and D2 ag -0.1.
For COc1cc([C@@H]2OC[C@@H]3[C@H]2CO[C@@H]3c2ccc3c(c2)OCO3)ccc1O the results were Six1-Eya2 blk 0, CtBP-E1A blk 0, D2 PAM -5, gsp agonist -56%[inhibitor], gsp antag 2% and D2 ag 0.0.
